NPYLR7 agonist: mosquito NPYLR7 agonism; activation, % at 10 µM; actives 0.15% (n = 270,000); HEK293T NPYLR7/Galpha15, GCaMP6s calcium fluorescence; in the data active means activation above about 40%;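 further: 0% = vehicle and 100% = reference agonist at the receptor; some compounds past the cut are filed as inactive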
NPYLR7 agonist max-min: second read-out of NPYLR7 agonist, no call of its own (marks repeat the call); activation, %; measured here: Max-Min RFU normalised activation; some inactives read as strong as hits;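 span of the calcium signal over five minutes; 0% = vehicle and 100% = native peptide agonist; compound fluorescence can raise it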
Starred values were filed as active, the others as inactive; & = joins results of further samples. Not all compounds are listed, so the mix of outcomes need not match the whole.

The line under a structure holds: NPYLR7 agonist, NPYLR7 agonist max-min
CCCCc1ccc(C(=O)N(CC(=O)N2CCc3sccc3C2c2ccc(Cl)cc2)C2CC2)cc1 (centres undefined)
  -1, 12
CCCCOc1ccc(C(=O)Oc2cc(C)[nH]c(=O)c2[N+](=O)[O-])cc1
  3, 2
Cc1c[nH]c(C(=O)N2CCNC(C(=O)O)C2)c1 (centres undefined)
  10, 3
C=C(C)CSC1=C(C#N)C(C)(C)C(C#N)C(=O)N1 (centres undefined)
  1&16, 0&7
COc1cccc2c1OCC(NCc1cnn(-c3ccccc3F)c1)C2 (centres undefined)
  2, -3
O=S(=O)(Cc1ccccc1)N1CCN(C(c2ccccc2)c2ccc(Cl)cc2)CC1 (centres undefined)
  28, 16
COc1ccc(C2=NN(C(=O)CN3CCOCC3)C(c3ccccc3C)C2)c(OC)c1 (centres undefined)
  -11, -11
O=C(O)c1coc(CN(CCN2CCOCC2)Cc2cccc(F)c2)n1
  -7, -1
N#CC(=NNc1ccc(OC(F)(F)F)cc1)c1nnc2n1CCCCC2
  -15, -20
Cc1cccc(N(C)c2cc(N3CCN(CC(=O)Nc4ccc5c(c4)OCO5)CC3)ncn2)c1
  6, 5
Cc1cc(O)c(CN2CCCN(c3ccccc3C#N)CC2)cc1C
  5, 4
OC(COc1ccccc1)CN(CCN1CCOCC1)Cc1ccc(F)cc1 (centres undefined)
  -7, 0
O=C1NC(=S)S/C1=C\c1ccc(-c2ccccc2[N+](=O)[O-])o1
  0, -1
O=C1NC2(CCN(Cc3ccc(C(F)(F)F)cc3)CC2)Nc2ccc(Cl)c(Cl)c21
  9, 3
CCCN(C(=O)CN1CCn2c(C)nnc2C1)C1=CCCCC1
  -1, -1
O=C(O)c1cccc(CC2CCN(C(=O)c3cnn4c3CCCC4)C2)c1 (centres undefined)
  2, 7
Oc1ccc(C2CNCc3sccc32)cc1O (centres undefined)
  3, -13
c1ccc(-c2cnnc(SCc3cn4cccnc4n3)n2)cc1
  1, 3
C=C(C)Cn1c(=O)c2c(nc3n2CC(C)=NN3Cc2ccccc2C)n(C)c1=O
  22, 15
CCc1ccc(S(=O)(=O)NCc2nnnn2-c2ccc(F)cc2)s1
  -2, -3
COc1ccc(CN2CCN(Cc3c[nH]c4ccccc34)CC2CCO)cc1C (centres undefined)
  4, 3
O=C(NCC12CC3CC(CC(C3)C1)C2)c1ccccc1
  -7, -11
Cc1n[nH]c(C)c1CCCN(C)C(=O)c1ncc[nH]1
  16, 8
COc1ccc([C@H]2Oc3cc(OC)cc(OC)c3C[C@H]2O)cc1
  -7, -13
Cc1c(C(=O)O)nn(-c2ccccc2)c1Oc1ccccc1[N+](=O)[O-]
  20, 5
CCc1c(C#N)c(N)nc(SCC(=O)c2ccc(Br)cc2)c1C#N
  -1, -9
O=C(CNc1n[nH]c(=O)[nH]c1=O)NNC(=O)c1ccc(Cl)cc1
  4, 13
CC(=O)c1cc2c(cc1NC(=O)Cn1cnc3c1c(=O)n(C)c(=O)n3C)OCO2
  6, 3
COc1cc(CC(=O)Nc2ccc(OC(F)(F)F)cc2)ccc1C
  7, 5
O=C(c1cccc(C(F)(F)F)c1)N1CCN(C(c2ccccc2)c2ccc(F)cc2)CC1 (centres undefined)
  15, -1
Cc1cccc2ncc(C(=O)N(Cc3ccccc3)CC(C)CO)c(=O)n12 (centres undefined)
  12, 3
CCN(C)c1ccccc1NC(=O)Cc1sc(=S)[nH]c1C
  -5, -6
Cc1ccc2cc(S(=O)(=O)NCc3ccc4c(c3)OCO4)ccc2c1
  7, 1
CCN1C(=S)NC(c2cccc(NC(=O)NCc3ccccc3)c2)C(C(=O)OC)=C1C (centres undefined)
  1, 7
Cc1oc(-c2ccccc2)nc1C1CC(=O)Nc2c1c(-c1ccccn1)nn2C (centres undefined)
  11, 3
O=C(Nc1noc2ncccc12)c1ccccc1
  -3, -2
COc1ccccc1-c1cc(-c2ccccc2)nc(SCC(=O)c2ccc(Cl)cc2)c1C#N
  -3, -10
CC(c1ccccc1)c1cn(CCC23CCCN2CCC3)nn1 (centres undefined)
  3, 5
COCCNC(=O)c1ccc(CSc2nnc(-c3cccc(OC)c3)n2-c2ccccc2F)cc1
  14, 22
CCOc1ccccc1NC(=O)c1ccc(S(=O)(=O)N2CCN(C)CC2)o1
  -1, -2
Cc1cc(C(=O)CSc2nnc(-c3ccco3)o2)c(C)n1CC1CCCO1 (centres undefined)
  -5, 12
C=CCn1c(=O)n(CC=C)c(=O)n(Cc2nccn2C)c1=O
  2, -1
CCOC(=O)Cn1c(C2CC(=O)N(c3ccccc3)C2)nc2ccccc21 (centres undefined)
  0, 27
COCCCN(CC(=O)N(CCc1ccc(OC)c(OC)c1)Cc1ccc(C)s1)S(=O)(=O)c1ccc([N+](=O)[O-])cc1
  -10, -3
Cc1ccsc1/C=C/c1cc(C(F)(F)F)[nH]c(=O)n1
  2, -3

An excerpt from above in order of length of the SMILES, ascending.
The line under a structure holds: NPYLR7 agonist, NPYLR7 agonist max-min
O=C(Nc1noc2ncccc12)c1ccccc1
  -3, -2
CCN(C)c1ccccc1NC(=O)Cc1sc(=S)[nH]c1C
  -5, -6
Cc1ccsc1/C=C/c1cc(C(F)(F)F)[nH]c(=O)n1
  2, -3
Cc1cc(C(=O)CSc2nnc(-c3ccco3)o2)c(C)n1CC1CCCO1 (centres undefined)
  -5, 12
Cc1oc(-c2ccccc2)nc1C1CC(=O)Nc2c1c(-c1ccccn1)nn2C (centres undefined)
  11, 3
COc1ccccc1-c1cc(-c2ccccc2)nc(SCC(=O)c2ccc(Cl)cc2)c1C#N
  -3, -10
COCCCN(CC(=O)N(CCc1ccc(OC)c(OC)c1)Cc1ccc(C)s1)S(=O)(=O)c1ccc([N+](=O)[O-])cc1
  -10, -3

More entries
The line under a structure holds: NPYLR7 agonist, NPYLR7 agonist max-min
CCOCC(=O)NCCOc1ccc(-c2ccc(OC)cc2)nn1
  -4, -6
O=S(=O)(C1=Cc2ccccc2CC1)N1CCCC1c1nc2ccccc2s1 (centres undefined)
  4, 9
COC(=O)c1cc2c3cc(C(=O)OC)sc3n(Cc3ccc(OC)cc3)c2s1
  -4, -1
OC(c1ccc(Cl)c(F)c1)c1ncc(-c2cccc(F)c2)[nH]1 (centres undefined)
  1, -2
CC(C)CN(Cc1ccsc1)C(=O)c1cccnc1N1CCOCC1
  -7, -11
CC(C)(C)c1cc(Nc2ccncc2)n2ncc(-c3ccccc3)c2n1
  -1, 10
COc1ccc(-c2ccccc2)cc1NC(=O)c1ccc2nc(C)c(N(C)CC3CCCCC3)n2c1
  -6, -10
CCOC(=O)c1ccc2c(c1)nc(SCC(=O)NCc1cccs1)n2CCOC
  0, -6
CCc1cnc(C)nc1N(C)Cc1cc(-c2ccccn2)no1
  -2, -2
Cc1cc(C)cc(C(=O)Nc2c(C)nc3sccn3c2=O)c1
  7, 1
CC(=O)OC(C(=O)N1CCC(c2nc(-c3ccc4c(c3)OCO4)no2)CC1)c1ccccc1 (centres undefined)
  17, 8
Cc1ccc(C(=O)Nc2ccc(SCC(=O)NCc3ccc4c(c3)OCO4)nn2)cc1
  7, 9
NC(=O)Cn1c(CO)cnc1SCC(=O)N1CCc2ccccc21
  5, 0
Cc1ccc(C)c(Nc2nnc(CC(=O)N3CCCC3)s2)c1
  -9, -11
COc1cccc(-n2c(=O)c3ccccc3n3c(=S)[nH]nc23)c1
  -1, 0

Retrieved by structure from the list above (3):
The line under a structure holds: NPYLR7 agonist, NPYLR7 agonist max-min
CC(C)CN(Cc1ccsc1)C(=O)c1cccnc1N1CCOCC1
  -7, -11
O=S(=O)(Cc1ccccc1)N1CCN(C(c2ccccc2)c2ccc(Cl)cc2)CC1 (centres undefined)
  28, 16
COc1ccc(CN2CCN(Cc3c[nH]c4ccccc34)CC2CCO)cc1C (centres undefined)
  4, 3

The results go on.
The line under a structure holds: NPYLR7 agonist, NPYLR7 agonist max-min
COc1cccc(OCC(=O)Oc2coc(CSc3nccc(C)n3)cc2=O)c1
  -15, -12
Cc1cccc(C(=O)NC(C(=O)N2CCCC2)C2CCN(C(=O)C3CC3)CC2)c1 (centres undefined)
  -7, -2
O=C(CC1CSc2nccc(=O)n21)Nc1ccccn1 (centres undefined)
  1, 1
Cc1ccc2nc(-c3ccccc3F)c(NC(C)(C)C)n2c1
  -3, -2
O=C(NN=Cc1c(O)ccc2ccccc12)c1ccco1
  0, -5
COc1ccc(OC)c(NC(=O)N2CCC(c3ccccc3)CC2)c1
  -6, -13
O=C(NC1CC(=O)N(c2ccc3c(c2)OCCO3)C1)N1CCCCC1 (centres undefined)
  -2, 5
O=S(=O)(c1ccc(Cl)cc1)N1CCC2(CC1)OCCO2
  -1, -5
Cc1ccn(-c2ccc(C(=O)N3CCCC(C(N)=O)C3)cc2)n1 (centres undefined)
  11&0, 6&-1
Cc1cc(N2CCN(C(=O)Cn3nnnc3CN(C)C(C)C)CC2)cc(C)n1
  3, 2
CCCCn1c(N)c(N(Cc2ccco2)C(=O)Cn2cnnn2)c(=O)[nH]c1=O
  1, 9
C=CCCC(O)CNCc1nc(-c2ccc(Cl)cc2)no1 (centres undefined)
  18, 14
COc1cccc(C)c1C(=O)N1CCN2CCNC(=O)C2C1 (centres undefined)
  5, 5
CCCCC(=O)OCc1[nH]c(C(=O)OCC)c(C)c1C(=O)OCC
  3, 5
C[C@@H](CO)NC(=O)CC1(CNC(=O)OC(C)(C)C)CCCCC1
  -3, -6
Cc1c(NC(=O)c2cccc3ccccc23)c(=O)n(-c2ccccc2)n1C
  2, 2
CCN(CC)C(=O)Cn1nc(-c2ccc(OC)c(OC)c2)c2sc(C)nc2c1=O
  -3, -3
CCC1C(=NO)C(CC)C(c2ccccc2)NC1c1ccccc1 (centres undefined)
  -16, -20
C[N+]1(C)CC(O)CC1C(=O)O (centres undefined)
  0, -2
Cc1ccsc1CN(C)C(=O)c1ccc(-c2ncn[nH]2)cc1
  2, 2
CCCCN1CCN(C(=O)C(O)c2ccccc2Cl)CC1=O (centres undefined)
  5, 2
COC(=O)[C@@H]1C[C@@H](NC(=O)CCC(=O)N2CCCCCC2)CN1C
  32, 21
COc1ccc(CNC(=O)C2CCCN(S(=O)(=O)c3ccc(F)cc3)C2)cc1 (centres undefined)
  1, 7
Cc1[nH]c2ccc(CNC(=O)C3CC(=O)N(Cc4ccccn4)C3)cc2c1C (centres undefined)
  20, 12
CCn1nc(CC(C)C)cc1C(=O)N(C)C1CCCN(C2Cc3ccccc3C2)C1 (centres undefined)
  -7, -7
CN(C)c1ncc(CN2CCN(Cc3ccc(F)c(F)c3)C(CCO)C2)s1 (centres undefined)
  5, -2
CCCCc1ccc(C(=O)Nc2ccc(Cl)c3c2C(=O)c2ccccc2C3=O)cc1
  -5, -9
Cc1ccccc1-n1c(Cc2ccccc2)nnc1SCc1ccc(C(=O)NCc2ccncc2)cc1
  8, 9
Cn1nccc1C(=O)Nc1ccc(S(=O)(=O)CC2CCCO2)cc1 (centres undefined)
  0, -9
CC(=O)N1CCCN(C(=O)C2CCCCN2CC(C)C)CC1 (centres undefined)
  4, 3
CC(C)(C)n1cc(C#N)c(NS(=O)(=O)c2cccc(F)c2)n1
  5, 3
CC1CCCCC1OCCNC(=O)C1(c2ccc(F)cc2)CCC1 (centres undefined)
  55*, 52*
CC(=O)Nc1cccc(-c2ccnc3c2CC(C)(C(=O)NCC2CC2)O3)c1 (centres undefined)
  -15, -15
O=C(Nc1cc(S(=O)(=O)N2CCCC2)ccc1O)c1ccc(S(=O)(=O)NC2CC2)cc1
  4, 2
CC(NCc1csc2ccc(Cl)cc12)C(=O)NC1CCCC1 (centres undefined)
  3, -7
COc1cccc(-n2nnc3c(=O)n(Cc4ccccc4)cnc32)c1
  8, 8
O=C1OC(C(=O)Nc2nc(-c3ccccc3Cl)cs2)Cc2ccccc21 (centres undefined)
  1, 3
COCCCN(CC(=O)N1CCc2sccc2C1COc1ccccc1OC)C(=O)Nc1cccc(Cl)c1 (centres undefined)
  -3, 12
O=C(O)c1cccc(C2Nc3ccccc3C(=O)N2CCCN2CCOCC2)c1 (centres undefined)
  0, -3
CC(=O)c1ccc(NC(=O)CN(C)Cc2cccc(F)c2)cc1
  4, 3
COC(=O)c1cc(NC(=O)C2CC(=O)N(C3CC3)C2)cc(C(=O)OC)c1 (centres undefined)
  -2, -2
O=C(COc1ccc(Cl)cc1)NC1CCN(c2ccccc2C(=O)NCCN2CCCCC2)CC1
  20, 16
Fc1ccc(Oc2cc(N3CCc4ccccc4C3)ncn2)cc1Cl
  -5, -1
CC(C)(C)C1CCC(C(=O)OCC(=O)NC23CC4CC(CC(C4)C2)C3)CC1 (centres undefined)
  2, 0
Fc1ccc(CSc2nnc(-c3cccs3)n2C2CC2)cc1
  12, 17
CC1CN(c2nccnc2C#N)CCN1C(=O)CCNC(=O)c1ccsc1 (centres undefined)
  6, 6
N#Cc1ccc(COC(CN2CCN(C(=O)c3ccco3)CC2)c2cccc(N3CCCC3)c2)cc1 (centres undefined)
  0, -13
Cn1c(=NC(=O)CCCS(=O)(=O)c2ccc(F)cc2)sc2cc3c(cc21)OCCO3
  11, 9
Cc1ccc(NC(=O)c2cc3n(n2)CCN(Cc2cccc(Cl)c2)C3=O)cc1C
  0, 6
Cn1cc(S(=O)(=O)NC2CCCCCC2)c(=O)n(C)c1=O
  3, 0
Cc1ccccc1-n1ncc(C(C)NC(=O)c2cc(F)ccc2F)c1C (centres undefined)
  8, 3
CCOC(=O)[C@H]1C[C@]2(CCCCN(C)C2=O)N(C(=O)Cc2cccs2)[C@H]1c1ccco1
  -2, 3
Cc1cccc(-c2nc3cc(C)cc(C)n3c2NC(C)(C)C)c1
  17, 20
CC(C)C12CN3CC(C(C)C)(CN(C1)C3c1cc(Br)ccc1O)C2=O (centres undefined)
  -6, -1
C=CCOc1ccc(C(=O)Nc2sc3c(c2C(=O)NCCCOC)CCCC3)cc1
  -7, -13
